GIRK2 activ: activators of human GIRK2 potassium channels; HEK293-GIRK2 thallium flux, Thallos fluorescence; calls only for hits at 25 µM; actives 0.05% (n = 63,000); G protein-activated inward rectifier potassium channel 2 (Homo sapiens), P48051;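 active = among the strongest 0.2% of first-round signals and kept after retests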;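 also: first round at about 10 µM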
Target sequence (P48051 whole entry, looked up): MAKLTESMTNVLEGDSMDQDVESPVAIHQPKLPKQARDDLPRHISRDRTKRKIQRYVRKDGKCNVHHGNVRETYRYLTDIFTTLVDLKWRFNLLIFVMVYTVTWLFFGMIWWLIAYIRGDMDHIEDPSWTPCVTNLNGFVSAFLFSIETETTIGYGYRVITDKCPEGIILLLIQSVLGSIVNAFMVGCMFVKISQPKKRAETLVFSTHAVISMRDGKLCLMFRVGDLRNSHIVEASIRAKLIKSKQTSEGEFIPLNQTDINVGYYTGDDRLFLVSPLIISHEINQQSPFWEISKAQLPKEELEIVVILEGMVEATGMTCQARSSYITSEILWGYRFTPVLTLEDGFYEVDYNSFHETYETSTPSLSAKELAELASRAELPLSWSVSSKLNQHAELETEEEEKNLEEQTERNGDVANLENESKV
Calls only; i = inactive. An excerpt. The share of hits here may be higher or lower than overall.

SMILES | GIRK2 activ
Cc1ccc(NC(=O)Cn2nc3c(Oc4cc(C)cc(C)c4)nccn3c2=O)cc1 | i
COc1ccc(NC(=O)C2CCN(c3ccc(S(=O)(=O)c4ccc(C)cc4)nn3)CC2)cc1OC | i
COCCNC(=O)NCc1cc(-c2ccccn2)n(C)n1 | i
CC(C)(C)C(O)CCNC(=O)Cc1ccc(F)cc1 (centres undefined) | i
O=C(CCSc1ccccc1)NCC(O)c1ccoc1 (centres undefined) | i
O=C(Cn1cccc(S(=O)(=O)N2CCCC2)c1=O)N1CCCc2ccccc21 | i
O=C(NCC1CCN(C(=O)c2ccccc2F)CC1)C(=O)NC1CC1 | i
COCCn1c(SCc2nc(-c3ccccc3)no2)nc2cc3c(cc2c1=O)OCO3 | i
O=C(c1cccc(Cl)c1)N1CCC(Cn2c(C(F)(F)F)nc3ccccc32)CC1 | i
COc1ccc(Cl)cc1NC(=O)Cn1c(C)cc(C)c(-c2nc(-c3ccccc3)no2)c1=O | i
COc1ccc(S(=O)(=O)N2CCN=C2SCc2ccc(Br)cc2)cc1 | i
Cc1cc(C(=O)Nc2nc(C(=O)NCCC3=CCCCC3)co2)no1 | i
CC(=O)Nc1ccc(NC(=O)CCc2ccc(-c3ccc(C)cc3)o2)cc1 | i
CCN(CC)CCN1C(=O)C(O)=C(C(=O)c2sc(C)nc2C)C1c1cccc(OC)c1 (centres undefined) | i
COc1ccc(C2CC3C4NN=C(CCC(=O)NCc5ccc(OC)cc5OC)N4C=CN3N2)cc1 (centres undefined) | i
O=C(c1cc2ccccc2oc1=O)N1CCN(Cc2nc(-c3ccc(F)cc3)cs2)CC1 | i
COC(=O)c1ccccc1NS(=O)(=O)c1ccc(N2C(=O)CCC2=O)cc1 | i
Cc1ccc2nc(C3CN(S(=O)(=O)N(C)C)C3)[nH]c2c1 | i
COc1cccc(OC)c1OCC(O)CSc1ccccn1 (centres undefined) | i
COc1cc(NC(=O)NCc2cc(C)oc2C)cc(OC)c1 | i
O=C(Nc1ccccc1)Nc1nnc(-c2ccc(Br)cc2)o1 | i
COc1ccc(NC(=O)Cn2nc3c4cc(-c5ccc(Cl)cc5)nn4ccn3c2=O)c(OC)c1 | i
COc1ccc(-c2csc3c(=O)n(CC(=O)NCc4ccccc4OC)cnc23)cc1 | i
Cc1ccc(C)c(-c2cc3c(=O)n(Cc4nc(-c5ccc(F)cc5)no4)ncn3n2)c1 | i
O=C(Nc1cccc2ccc(-n3ccnc3)nc12)c1cc(-c2ccco2)on1 | i

2 entries from above, with each value named:
> O=C(Cn1cccc(S(=O)(=O)N2CCCC2)c1=O)N1CCCc2ccccc21
  GIRK2 activ: i
> O=C(NCC1CCN(C(=O)c2ccccc2F)CC1)C(=O)NC1CC1
  GIRK2 activ: i

(more compounds)
SMILES | GIRK2 activ
CCOc1ccc(-c2cc3c(=O)n(CC(=O)Nc4cccc(OC)c4)ccn3n2)cc1 | i
COC(=O)CCn1c(=O)c2c(nc3n(-c4cccc(OC)c4)c(C)c(C)n23)n(C)c1=O | i
CSc1ccccc1NC(=O)Cn1nc(C(=O)N2CCOCC2)cc1-c1cccs1 | i
Cc1onc(-c2ccccc2Cl)c1C(=O)Nc1cnc(N(C)C)nc1 | i
COC(=O)c1ccccc1NC(=O)COc1cc(C)nc(N2CCCC2)n1 | i
Cc1c(C)n2c3c(=O)n(C)c(=O)n(C)c3nc2n1Cc1ccccc1F | i
CCN(CC)CCCN1C(=O)C(O)=C(C(=O)c2sc(C)nc2C)C1c1ccccc1F (centres undefined) | i
CC1CN(c2oc(-c3ccccc3)nc2S(=O)(=O)c2ccccc2)CC(C)O1 (centres undefined) | i
Cc1cc(C)n(-c2ccc(C(=O)Nc3cc(N4CCC(C)CC4)ncn3)nn2)n1 | i
COCCn1c(=O)c2c(nc(-n3nc(C)cc3C)n2Cc2ccccc2)n(C)c1=O | i
Cc1ccccc1NC(=O)Cn1ccn2nc(-c3ccccc3)cc2c1=O | i
CC(C)Cc1ccc(C(C)C(=O)NCc2ccc(C(F)(F)F)cc2)cc1 (centres undefined) | i
COc1ccccc1CNC(=O)c1nnn(-c2ccc(Cl)cc2)n1 | i
CC(C)NC(=O)Cn1c(-c2ccc(F)cc2)nc2c(c1=O)CCN(Cc1ccccc1)C2 | i
Cn1c(=O)c2c(nc(SCCC(=O)O)n2Cc2ccccc2)n(C)c1=O | i
COc1ccc(-c2nc(C)cc(SCC(=O)Nc3ccc4c(c3)OCCO4)n2)cc1 | i
CC(=O)Nc1ccc(SCCCC(=O)NC2CC2)nn1 | i
COCCn1c(=O)c2c(nc(-n3nc(C)c(C)c3C)n2Cc2ccccc2C)n(C)c1=O | i
O=C(COC(=O)c1c2c(nc3ccccc13)CCC2)c1ccc(F)cc1 | i
CCc1cc(S(=O)(=O)NCCCn2ccnc2)ccc1OC | i
Cc1nc(NCCNC(=O)Nc2ccc3ccccc3c2)cc(Nc2ccccn2)n1 | i
O=C(NCCn1ncccc1=O)c1ccccc1 | i
COCCNC(=O)CSc1nnc(C(C)C)c2cnn(-c3ccc(C)cc3)c12 | i
CCNC(=O)Nc1nc(-c2cc(C)ccc2C)cs1 | i
CCCCCCCC/C=C\CCCCCCCC(=O)N[C@H](CO)Cc1ccc(O)cc1 | i
SMILES | GIRK2 activ
CCC(=O)N(CC1CCCO1)c1nc2ccc(OC)cc2s1 (centres undefined) | i
COc1ccccc1OCC(=O)OC1CN(c2nc3c(C(F)(F)F)cccc3s2)C1 | i
COc1ccc(-c2noc(-c3ccc(=O)n(Cc4cccc(Br)c4)c3)n2)cc1 | i
CCCCOc1cc(C)cc2oc(=O)cc(-c3ccccc3)c12 | i
Cc1cc(=O)[nH]c(-n2nc(C3CC3)cc2NC(=O)c2ccc(C(F)(F)F)cc2)n1 | i
CC(C(=O)NCc1cccnc1)n1nc(-n2cccn2)ccc1=O (centres undefined) | i
COc1cc(C)c(S(=O)(=O)NCCOc2ccc(-c3ccc(F)cc3)nn2)cc1C | i
O=C(Nc1cccc(F)c1)c1csc2nc(-c3ccc(F)cc3)cn12 | i
CCCc1nnsc1C(=O)Nc1nc2ccc3nc(SC)sc3c2s1 | i
O=S(=O)(Nc1ccc2c(c1)N(S(=O)(=O)c1ccccc1)CCC2)c1ccc2c(c1)OCCO2 | i
Cc1ccc(N2CC(C)Cn3c2nc2c3c(=O)n(CC(=O)O)c(=O)n2C)cc1 (centres undefined) | i
Cc1nn(-c2ccccc2)c(C)c1N1CCN(S(=O)(=O)c2cccs2)CC1 | i
COc1ccccc1-c1noc(CSc2nc3cc4c(cc3c(=O)n2Cc2ccco2)OCO4)n1 | i
O=C(NCCCN1CCN(c2ccccc2)CC1)C(=O)NC1CCCCC1 | i
COc1ccccc1OCC(=O)NNC(=O)c1cccn(Cc2ccc(F)cc2)c1=O | i
COC(=O)c1ccccc1C(=O)N1CCC(CSc2ccccn2)CC1 | i
CC(=O)N1CCN(c2cc(Nc3cc(C)ccn3)nc(C)n2)CC1 | i
Cc1ccc(-n2ncc3c(C)nnc(SCC(=O)NCCc4ccccc4)c32)cc1 | i
Cc1ccc(S(=O)(=O)NCC(C)(O)CCc2ccccc2)cc1Cl (centres undefined) | i
O=C(CCCc1ccccc1)N1CCC(Oc2ccccn2)CC1 | i
COc1cccc(-n2ncc3c(N/N=C\c4ccc(F)cc4)ncnc32)c1 | i
Cc1c(Cl)cccc1S(=O)(=O)NCC1(CO)CC1 | i
Cc1ccccc1Cn1c(=O)c2c(nc3n2CCCN3c2ccc(Oc3ccccc3)cc2)n(C)c1=O | i
CC(=O)c1ccc(NC(=O)c2ccc(S(=O)(=O)N3CCN(C)CC3)o2)cc1 | i
COc1ccccc1C1(C(=O)NCC2CCN(C(=O)c3ccoc3)CC2)CCOCC1 | i
SMILES | GIRK2 activ
O=C(/C=C/c1cccs1)Nc1ccc2c(c1)CCCN2C(=O)c1ccccc1 | i
CCOc1cc(N)c(Cl)cc1C(=O)NCC1CN(Cc2ccc(F)cc2)CCO1 (centres undefined) | i
CC(=O)Nc1ccc(S(=O)(=O)N2CCC(Oc3ncccc3Cl)CC2)cc1 | i
CC(CCc1ccccc1)NC(=O)CN1CCN(c2ccc(F)cc2)C1=O (centres undefined) | i
Cc1ccccc1-c1ccc(N2CCN(S(=O)(=O)Cc3ccccc3)CC2)nn1 | i
Cc1cc(CNC(=O)c2cc(Br)ccc2Cl)c(C)o1 | i
O=C(NCC1CCN(Cc2ccsc2)CC1)c1ccc(S(=O)(=O)N2CCOCC2)cc1 | i
O=C(NCC(F)(F)F)C1CCN(C(=O)c2cc(-c3ccco3)on2)CC1 | i
COc1ccc(S(=O)(=O)N2CCCCCC2)c(C)c1C | i
CCOc1ccc2c(c1)O/C(=C\c1ccc(O)c(OC)c1)C2=O | i
Cc1c(Cl)cccc1NC(=O)Cn1cnc2c(-c3ccc(F)cc3)csc2c1=O | i
CC(C)(C)C(=O)N1CCN(CC(O)c2cccs2)CC1 (centres undefined) | i
NC(=O)CSc1cccc2cccnc12 | i
COc1ccccc1N1CCN(CCNC(=O)C(=O)Nc2ccc(C)c(N3CCCC3=O)c2)CC1 | i
COc1cc(NC(=O)CCCCCn2cnc3ccccc3c2=O)cc(OC)c1 | i
CCCn1c(=O)c2sc(N3CCCC3)nc2n(CC(=O)Nc2ccc(Br)cc2)c1=O | i
CC(C)(C)OC(=O)COc1ccc2c(c1)O/C(=C\c1ccccc1)C2=O | i
N=C1C(c2nc3ccccc3[nH]2)=C(O)CN1c1cccc(Br)c1 | i
Cc1ccc2nc(C3CN(C(=O)c4ccc(F)c(F)c4)C3)[nH]c2c1 | i
CCCS(=O)(=O)N1CCN=C1SCc1ccc(Cl)cc1 | i
Cc1ccccc1-n1nnc(C(=O)NCc2ccc(Br)cc2)c1-c1ccncc1 | i
O=C(CSc1cc(N2CCCC2)ncn1)Nc1ccc(F)cc1Cl | i
COc1cc2cc(Oc3ccc4ccc(=O)oc4c3)c(=O)oc2cc1OC1OC(COC(=O)CC(C)(O)CC(=O)O)C(O)C(O)C1O (centres undefined) | i
Cc1csc(COc2ccc(C(=O)NCC3CCCO3)cc2)n1 (centres undefined) | i
CCSc1ccccc1C(=O)NCC1(CO)CC1 | i

Next part, overlapping the part above by 7 compounds.
SMILES | GIRK2 activ
Cc1ccc2nc(C3CN(C(=O)c4ccc(F)c(F)c4)C3)[nH]c2c1 | i
CCCS(=O)(=O)N1CCN=C1SCc1ccc(Cl)cc1 | i
Cc1ccccc1-n1nnc(C(=O)NCc2ccc(Br)cc2)c1-c1ccncc1 | i
O=C(CSc1cc(N2CCCC2)ncn1)Nc1ccc(F)cc1Cl | i
COc1cc2cc(Oc3ccc4ccc(=O)oc4c3)c(=O)oc2cc1OC1OC(COC(=O)CC(C)(O)CC(=O)O)C(O)C(O)C1O (centres undefined) | i
Cc1csc(COc2ccc(C(=O)NCC3CCCO3)cc2)n1 (centres undefined) | i
CCSc1ccccc1C(=O)NCC1(CO)CC1 | i
CCn1c(SCC(N)=O)nc2c1c(=O)n(C)c(=O)n2C | i
CC(C)(C)c1ccc2c(c1)N(Cc1nc(-c3ccc(Cl)c(F)c3)no1)C(=O)CO2 | i
Cc1noc(C)c1CCC(=O)NCCc1cccs1 | i
COC(=O)NNC(=O)c1csc(-c2cc3ccccc3[nH]2)n1 | i
O=C(COc1ccc(Cl)cc1)N1CCC(Oc2ccccn2)CC1 | i
Cc1ccc(C)c(NC(=O)CSc2nccnc2N2CCSCC2)c1 | i
Cn1nc(C(=O)Nc2ccc(Oc3ccccc3)cc2)ccc1=O | i
Cn1c(N2CCCC2)nc2c1c(=O)n(Cc1ccccc1)c(=O)n2C | i
CN(c1ccc(Cl)cc1)S(=O)(=O)c1ccsc1-c1nc(-c2cccnc2)no1 | i
O=C(Nc1oc2ccccc2c(=O)c1-c1cccc(Cl)c1)c1cccs1 | i
CCOC(=O)c1ccccc1NC(=O)CN1CCc2nc(NC(=O)C3CC3)sc2C1 | i
COC1(CNS(=O)(=O)c2c(C)noc2C)CCSC1 (centres undefined) | i
O=C(Cn1c(=O)n2nc(-c3ccccc3)nc2c2ccccc21)c1ccc(Cl)cc1 | i
CC(=O)NC1C(OC2CCC3(C)C(CCC4(C)C3CC=C3C5CC(C)(C)CCC5(C(=O)O)C(O)CC34C)C2(C)C)OC(CO)C(O)C1O (centres undefined) | i
O=C(O)Cc1ccc(NC(=O)c2ccc3c(c2)OCCO3)cc1 | i
COC(=O)CC1=CC(SCC(=O)Nc2ccccc2Br)=Nc2ccccc2N1 | i
COc1ccccc1CNC(=O)C(=O)Nc1ccc(C)c(F)c1 | i
Cc1ccc(C(O)CNC(=O)C(=O)Nc2cccc(N3CCCC3=O)c2)o1 (centres undefined) | i
O=C(NCCCn1ncccc1=O)Nc1ccc(OC(F)(F)F)cc1 | i
CCCCNc1c(C(=O)OCC)c(=O)[nH]c2c(C)cccc12 | i
NC(=O)Cn1ncn2nc(-c3ccccc3)cc2c1=O | i
CC1(C)C=Cc2c(ccc3c2N=C2C(C)(C)[C@@H]4C[C@]56CCCN5C(=O)[C@@]4(C[C@]23O)NC6=O)O1 | i
O=C(NCC1(c2cccs2)CCOCC1)c1ccc(Br)o1 | i
CC1CCCN(c2nc3c(c(=O)n(C)c(=O)n3C)n2CC(=O)c2ccccc2)C1 (centres undefined) | i
CC(C)c1ccc(-c2ccnc3c(C(=O)N4CCN(c5ccccn5)CC4)cnn23)cc1 | i
CCOC(=O)C(Cc1ccccc1)Sc1nnc(N)s1 (centres undefined) | i
COc1ccc(S(=O)(=O)Oc2ccc3c(c2)O/C(=C\c2cc(OC)c(OC)cc2OC)C3=O)cc1 | i
COC(=O)c1ccc(NC(=O)CSc2nnc(-c3ccc(OC)c(OC)c3)n2N)cc1 | i
CCc1ccc(CNC(=O)c2nnn(-c3cccc(OC)c3)c2-c2ccncc2)cc1 | i
CSCCC(C)(O)CNC(=O)C(=O)NCC1CCCO1 (centres undefined) | i

Pulled by structure from the entries so far, 4 records:
SMILES | GIRK2 activ
CSCCC(C)(O)CNC(=O)C(=O)NCC1CCCO1 (centres undefined) | i
O=C(Nc1oc2ccccc2c(=O)c1-c1cccc(Cl)c1)c1cccs1 | i
CC(=O)NC1C(OC2CCC3(C)C(CCC4(C)C3CC=C3C5CC(C)(C)CCC5(C(=O)O)C(O)CC34C)C2(C)C)OC(CO)C(O)C1O (centres undefined) | i
O=C(NCC1(c2cccs2)CCOCC1)c1ccc(Br)o1 | i

From PubChem BioAssay
